RE007 growth inh = less growth of the S. pombe RE007 Vpr strain | 360,000 compounds, 0.21% hits | S. pombe RE007 Vpr strain, BacTiter-Glo ATP luminescence, 24 h; control for the full effect not named in the record | Potency, µM (titrated, usually from 92.2 µM), without a hit: at the top dose activity change, negative = less growth | AID 651644; active = well fitted falling curve with a large enough effect; inconclusive = small, poorly fitted or top-dose-only effect; inactive = no such curve, though single readings can be large or run the other way;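 further: on the % scale 0 is the no-effect control and ±100 the full control effect; nearly all actives have a fitted effect of over 50% in size; the assay follows cell death caused by Vpr and the record does not say whether a fall means rescue or toxicity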
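Fission yeast RE007 carrying one integrated HIV-1 vpr copy, seeded at OD 0.01 in PMG+AL medium with 23 nL pinned compound. Grown 24 h at 30 degrees; viability read by BacTiter-Glo luminescence after 5 min.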
SARS PLpro yeast = inhibitors of SARS-CoV papain-like protease in yeast | S. cerevisiae expressing SARS-CoV PLpro, growth rescue; control for the full effect not named in the record | Potency, µM (doses to about 32.9 µM), for the others: at the top dose activity, positive = growth rescue | 330,000 compounds, 0.19% hits | AID 485353; active means well fitted rising curve with a large enough effect; inconclusive means small, poorly fitted or top-dose-only effect; inactive means no such curve, though single readings can be large or run the other way; further: 0% is about no effect; nearly all actives have a fitted effect of over 55% in size; growth read by luminescence after 48 h
Marburg entry inh = blocks Marburg virus binding to or entry into cells; Potency, µM (series often up to 37.8 µM), inactives show at the top dose activity change, negative = inhibition, usual class: inhibitors; 300,000 compounds, 1.8% hits; Marburg virus pseudotyped entry inhibition, cell reporter; control for the full effect not named in the record; about a third of the inactives were read at about 46 µM; active = well fitted inhibition curve with a large enough effect; inconclusive = small, poorly fitted or top-dose-only effect, or effect the other way; inactive = flat fitted curve, though single readings scatter; tested in HEK293 cells; about a fifth of its hits are not listed in these tables; further: on the % scale 0 is the no-effect control and ±100 the full control effect; luciferase read-out
Cruzain noTriton = inhibitors of Trypanosoma cruzi cruzain without detergent; P25779; purified cruzain, Z-FR-AMC fluorescence, no detergent; Potency, µM, for inactives: max response, negative = inhibition, actives largely listed as inhibitors; 200,000 compounds, 2.3% hits;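 further: plate controls were enzyme without inhibitor for no effect and buffer without enzyme for full effect; nearly all actives have a fitted effect of over 40% in size; top concentration of the series not given in the record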
Target sequence (P25779 123-467 limits assumed): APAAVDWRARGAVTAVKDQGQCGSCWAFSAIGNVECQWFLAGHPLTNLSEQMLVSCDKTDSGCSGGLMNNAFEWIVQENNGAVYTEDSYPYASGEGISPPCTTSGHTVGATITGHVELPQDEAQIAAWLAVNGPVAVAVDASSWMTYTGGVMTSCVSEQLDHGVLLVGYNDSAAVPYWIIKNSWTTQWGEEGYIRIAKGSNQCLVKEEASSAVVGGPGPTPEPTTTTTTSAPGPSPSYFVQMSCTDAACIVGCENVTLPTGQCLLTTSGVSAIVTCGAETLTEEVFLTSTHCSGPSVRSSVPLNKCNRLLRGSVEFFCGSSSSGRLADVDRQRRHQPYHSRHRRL
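Purified cruzain at 1.5 nM, pre-incubated 15 min with compound at room temperature in 100 mM sodium acetate pH 5.5, 5 mM DTT, 0.00005% Triton X-100. Reaction started with 2 uM Z-FR-AMC; AMC fluorescence increase over 60 s gives rate.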
Cruzain Triton = cruzain (T. cruzi) inhibition with detergent | P25779 | purified cruzain, Z-FR-AMC fluorescence, 0.01% Triton | Potency, µM, without a hit: max response, negative = inhibition, usual class: inhibitors | 200,000 compounds, 0.43% hits | AID 1478;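 further: plate controls were neutral wells for no effect and buffer without enzyme for full effect; nearly all actives have a fitted effect of over 40% in size; top concentration of the series not given in the record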
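15 min RT preincubation of 1.5 nM cruzain with compound, then 2 uM Z-FR-AMC added; kinetic AMC fluorescence, 60 s delta. Triton X-100 0.01%, pH 5.5.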
Lassa entry inh = blocks Lassa virus binding to or entry into cells; Lassa virus pseudotype entry inhibition, cell reporter; control for the full effect not named in the record; Potency, µM (top dose mostly 37.9 µM), without a hit: at the top dose activity change, negative = inhibition, most hits filed as inhibitors; 300,000 compounds, 1.2% hits; active means well fitted inhibition curve with a large enough effect; inconclusive means small, poorly fitted or top-dose-only effect, or effect the other way; inactive means flat fitted curve, though single readings scatter; tested in HEK293 cells; further: on the % scale 0 is the no-effect control and ±100 the full control effect; nearly all actives have a fitted effect of over 50% in size; luciferase read-out
StopGo reporter = lowers the luciferase signal of an FMDV 2A StopGo reporter; human cells with a luciferase reporter of 2A StopGo recoding; control for the full effect not named in the record; Potency, µM (titrated, usually from 57.9 µM), without a hit: at the top dose signal change, negative = less light; AID 1159524; 410,000 compounds, 1.2% hits; active = well fitted falling curve with a large enough effect; inconclusive = small, poorly fitted or top-dose-only effect; inactive = no such curve, though single readings can be large or run the other way; tested in HEK293T cells; further: on the % scale 0 is the no-effect control and ±100 the full control effect; nearly all actives have a fitted effect of over 45% in size; luciferase light after 4 h
NS1 function inh = inhibitors of influenza NS1 protein function; Potency, µM (series often up to 46.1 µM), for the others: at the highest dose activity, positive = more growth; AID 2326; S. cerevisiae slowed by influenza A NS1, growth recovery by OD600; 270,000 compounds, 0.4% hits; active means well fitted rising curve with a large enough effect; inconclusive means small, poorly fitted or top-dose-only effect; inactive means no such curve, though single readings can be large or run the other way; further: nearly all actives have a fitted effect of over 50% in size
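Recovery from NS1-induced slow growth read by OD600 in budding yeast switched to galactose assay medium (pH 6.0, -URA) at 1:100 dilution. Compound 23 nl per well; the matching strain lacking NS1 serves as control.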
* = called active by the depositor; ? = inconclusive; nt = not tested or not shown; & = joins results of further samples; [ ] = dose if it differs, or a comment. Unless noted, the call rests on the fitted dose curve; in most records, active means well fitted curve in the direction sought with a large enough effect; inconclusive means small, poorly fitted or top-dose-only effect, or another doubt; inactive means no such curve, though single readings can be large; an effect the other way counts as inactive or inconclusive. Potency means the concentration at half of the fitted maximal effect. Compounds as they come (roughly 4.5% active in at least one column).

SMILES	RE007 growth inh	SARS PLpro yeast	Marburg entry inh	Cruzain noTriton	Cruzain Triton	Lassa entry inh	StopGo reporter	NS1 function inh
Cc1oc2ccc(O)cc2c1C(=O)c1ccc(Cl)cc1	-21%	-32%	1%	10%	-15%	21%	28%	-84%
COc1ccccc1-c1noc(-c2ccc(N(C)Cc3ccccc3)c([N+](=O)[O-])c2)n1	nt	nt	2%[46.1 µM]	-24%	-2.2%	-6%[46.1 µM]	13%	nt
COc1ccc(CCNCc2cc3ccc(C)cc3[nH]c2=O)cc1OC	10%	1%	nt	nt	nt	nt	-27%	1%
CC1Cc2ccccc2N1C(=O)CO/N=C/c1ccc(OC(F)F)cc1 (configuration not stated)	-7%	-22%	10%	-5%	-9.4%	?	-6%	6%
COC(=O)c1cccc(/C=N/NC(N)=S)c1O	18%	7%	nt	nt	nt	nt	24%	-3%
CCOC(=O)c1cc(S(=O)(=O)Nc2cc(OC)ccc2OC)[nH]n1	nt	nt	nt	14%	5.0%	6%[46.1 µM]	8%	nt
CCCC(=O)NCCc1c2n(c3ccc(OC)cc13)Cc1ccccc1-2	nt	nt	?	5%	-6.8%	nt	nt	2%
Clc1ccc(OCc2nn3c(C4CCCCC4)nnc3s2)c(Cl)c1	5%	-8%	-10%	-11%	-7.9%	-14%	-9%	-77%
COc1cc(CC(=O)Nc2ncc(C)s2)cc(OC)c1OC	0%	-1%	2%	2%	0.3%	-22%	-7%	-2%
CCOC(=O)CSCC(=O)N1N=C(c2cccs2)CC1c1ccc(F)cc1 (configuration not stated)	13%	-5%	-18%	7%	-9.0%	-1%	-26%	-3%
O=C(c1ccccn1)c1ncc(C(F)(F)F)cc1Cl	-6%	-3%	12%	3%	6.1%	18%	-5%	5%
CCC1(c2ccccc2)C(=O)N(C)C(=O)N(C)C1=O	-8%	nt	4%	5%	2.2%	12%	nt	-1%
Fc1ccc(N2CCN(C(c3cccs3)c3nnnn3CCc3ccccc3)CC2)cc1 (configuration not stated)	-8%	-27%	13µM*	-8%	-6.6%	11µM*	-25%	-42%
O=C1CSC2=NCN(c3ccccc3)CN12	-7%	2%	-14%&-14%	-3%	3.6%	16%	-23%	-4%
CC(=O)Nc1nc(N(C)C)nc(N(C)C)n1	-22%	-1%	7%[46.1 µM]	nt	nt	-1%	-2%	-3%
Fc1ccc(C2CC(c3cccs3)=NN2C(=S)Nc2ccccc2)cc1 (configuration not stated)	3%	9%	nt	?	-4.9%	-14%	-24%	15%
COc1cc(C(=S)N2CCOCC2)cc(Br)c1OS(=O)(=O)c1ccccc1	15%	4%	nt	nt	nt	nt	14%	24%
CCNC(=S)N1CCN(CC)CC1	-3%	0%	-1%[46.1 µM]	nt	nt	4%	-9%	5%
COc1ccccc1C(CNC(=O)c1cccc(S(=O)(=O)Nc2ccc(C)cc2)c1)N1CCCC1 (configuration not stated)	-14%	5%	?	nt	nt	8%	-17%	nt
Cn1c(=O)n(C)c2cc(C(=O)Nc3ccc4c(c3)OCO4)ccc21	2%	2%	8%	-14%	-2.1%	1%	107%[activator]	-12%
Nc1ccc(C#Cc2ccccc2)cc1	-11%	3%	-22%	-7%	-1.7%	19%	17%	-11%
N=c1sccn1CC(=O)N1CCc2ccccc21	-7%	-2%	6%	-3%	3.3%	-6%	-12%	-1%
Cc1ccc(C(=O)N/N=C/c2cn(Cc3ccccc3)c3ccccc23)cn1	1%	0%	nt	nt	nt	nt	-22%	-2%
Cc1c(CCOC(=O)CC23CC4CC(CC(C4)C2)C3)sc[n+]1CC(=O)c1ccc(Br)cc1	243%	nt	-11%	17%	-4.2%	-19%	-22%	19%
CC(C)(/C=N/NC(=O)CSCc1ccc(Cl)cc1)CCC#N	-9%	0%	-17%	nt	nt	11%	4%	5%
CC(C)(C)c1nn2cnnc2n(/N=C/c2cccc3ccccc23)c1=O	-2%	-16%	15%	18%	-2.1%	0%	28µM*	-15%
COc1ccc(C(=O)Nc2ccc3oc(-c4cccc(Cl)c4)cc(=O)c3c2O)cc1	-1%	2%	nt	nt	nt	nt	-14%	-1%
CCCN(C(=O)c1cccc(-n2cccc2)c1)c1c(N)n(Cc2ccccc2)c(=O)[nH]c1=O	0%	0%	6%[46.1 µM]	nt	nt	4%	-10%	nt
COCCn1nnnc1C(c1ccccc1)N1CCN(c2ccccc2)CC1 (configuration not stated)	6%	12%	-18%	4%	-0.8%	6%	-3%	3%
Cc1nn(CC(=O)NCCCN2CCCC2)c(=O)c2nn(-c3ccccc3)c(C)c12	-8%	9%	nt	nt	nt	nt	-16%	0%
Cc1ccc(N=Cc2cc(Cl)cc(Cl)c2O)nc1	1%	-15%	10%	-3%	-4.3%	0%	0%	-16%
CCN(CC)S(=O)(=O)c1ccc2c(c1)N(CC(=O)N1CCN(c3ccc(OC)cc3)CC1)C(=O)CO2	nt	nt	nt	36%	0.0%	14%[46.1 µM]	-3%	nt
Cc1cc(Cl)ccc1OCC(=O)NNC(=O)c1ccco1	14%	-7%	?	nt	nt	13%[46.1 µM]	26%	-6%
N#Cc1ccc(NC(=O)COCc2cc(-c3ccc(F)cc3)on2)cc1	nt	nt	?	5%	-6.6%	15%[46.1 µM]	0%	nt
COc1ccc(CN(C(=O)c2snc(C(N)=O)c2N)C(CC(C)C)C(=O)NC2CCCCC2)cc1 (configuration not stated)	13%	-4%	?	nt	nt	?	-13%	21%
O=c1cc(N2CCCC2)c(-c2ccccc2)n[nH]1	1%	0%	?	nt	nt	0%[46.1 µM]	-1%	1%
CC/C(CC(c1ccccc1)c1c(O)c2ccccc2oc1=O)=N\NC(N)=S (configuration not stated)	11%	13µM*	?	-21%	-11%	5%	29%	-4%
CNc1ccc(Br)cc1C(O)c1ccccc1 (configuration not stated)	8%	0%	13%	nt	nt	-13%	86%[activator]	6%
O=C(Nc1ccc(N2CCOCC2)cc1)NC1CCCCC1	16%	6%	?	3%	11%	?	63%[activator]	-5%
COc1cc(/C=C2/C(=N)N3C(=NC2=O)SN=C3S(=O)(=O)C(C)C)ccc1OC(=O)c1ccco1	1%	8%	nt	nt	nt	nt	-2%	1%
Cn1c(SCC(=O)N2CCN(c3ccccc3)CC2)nnc1-c1cc2ccccc2o1	1%	-4%	?	-2%	-2.6%	-20%	3.5µM*	-5%
O=C(Cc1ccc(-n2c(=O)[nH]c3ccccc3c2=O)cc1)N1CCN(c2ccccc2)CC1	15%	0%	0%	-6%	0.0%	-16%	-28%	6%
CCN1CCN(CCCNC(=O)c2ccc3c(c2)N(Cc2ccccc2)CCS3)CC1	12%	-3%	nt	nt	nt	nt	-3%	-4%
CN(C(=O)c1cccnc1)c1nnc(-c2cccnc2)s1	3%	2%	19%	0%	-4.4%	-1%	36%[activator]	-1%
O=C(Nc1ccc2c(c1)CCC2)c1cc(S(=O)(=O)Nc2ccc(F)cc2)c(Cl)cc1Cl	10%	-9%	?	20µM*	-0.8%	?	-11%	14µM*
CCCN1CCN(c2ncnc3sc(C(=O)Nc4ccc(N(CC)CC)cc4C)c(C)c23)CC1	nt	nt	nt	-22%	-1.5%	?	?	nt
Cc1ccsc1-c1nc(CN(C)C(C2CC2)C2CC2)c(C)o1	4%	1%	8.9µM*	nt	nt	-8%[46.1 µM]	-15%	-2%
COc1cc(-c2nnc(Cn3cc(C(F)(F)F)ccc3=O)o2)cc(OC)c1OC	17%	-6%	25%	1%	0.8%	0%	?	2%
O=c1[nH]ncc(N2CCN(Cc3ccccc3)CC2)c1Cl	-16%	0%	14%[46.1 µM]	nt	nt	-1%	-7%	7%
Cc1ccc(Cl)cc1NC(=O)c1ccc(CSc2nnnn2C)cc1	-11%	-4%	-1%	0%	1.2%	1%	-3%	-3%
Cc1cccc(C(=O)N[C@H](C(=O)Nc2cccc(S(=O)(=O)N3CCCC3)c2)C(C)C)c1	40%	3%	nt	nt	nt	nt	18%	8%
O=C(O)C1C2C=CC3(CN(CC(O)COc4ccccc4)C(=O)C13)O2 (configuration not stated)	-3%	9%	-7%	8%	2.3%	1%	-19%	-1%
O=C(NCCN1CCOCC1)c1ccc(Cl)c(S(=O)(=O)N2CCCCC2)c1	-18%	0%	-9%	nt	nt	?	-19%	10%
Cn1c(Cn2c(=O)sc3ccccc32)nnc1SCc1ccccc1	2%	26%	nt	2%	-3.9%	nt	-14%	-11%
COc1ccc(NC(=O)c2ccc(NCCN3C(=O)CCC3=O)c([N+](=O)[O-])c2)cc1	-14%	0%	?	nt	nt	0%	-13%	6%
Cc1ccc(-c2cc(NC(=O)c3ccccc3[N+](=O)[O-])n[nH]2)cc1	-4%	-7%	nt	nt	nt	nt	19%	20%
O=C(O)CCNC(=O)c1ccc(NC(=O)Cc2ccc(Cl)cc2)cc1	4%	1%	?	nt	nt	-7%	-5%	nt
CCCc1cc(C(=O)OC)c2ccccc2n1	0%	8%	-3%	2%	-2.8%	-10%	-10%	5%
Cc1occc1C(=O)N/N=C/c1ccc(-c2ccccc2)cc1	?	-41%	?	nt	nt	7.9µM*	-2%	-1%
Cc1ccc(S(=O)(=O)N2CCC(C(=O)NC3CCCCC3C)CC2)cc1 (configuration not stated)	-8%	3%	nt	nt	nt	nt	-8%	-6%
The results go on.
SMILES	RE007 growth inh	SARS PLpro yeast	Marburg entry inh	Cruzain noTriton	Cruzain Triton	Lassa entry inh	StopGo reporter	NS1 function inh
O=CN(Cc1ccccc1)c1cc([N+](=O)[O-])ccc1OCc1ccccc1	9%	nt	-25%	nt	nt	-9%[46.1 µM]	?	nt
CCn1c(CSc2ncccn2)nnc1SCC(=O)N1CCc2ccccc21	-9%	5%	4%	-7%	4.6%	15%	7%	-5%
Clc1nnc(N/N=C/c2ccccc2)c2ccccc12	?	-3%	?	4%	-6.7%	-19%	32%[activator]	-10%
CC1(CCc2ccccc2)NC(=O)N(CC(=O)N2CCCCCC2)C1=O (configuration not stated)	3%	-6%	?	nt	nt	-14%[46.1 µM]	-7%	nt
Cc1cc(C)c(Cn2c3ccccc3c3cnn(CC(=O)NC4CCC(C)CC4)c(=O)c32)c(C)c1 (configuration not stated)	nt	nt	12%[46.1 µM]	2µM*	-2.2%	-9%[46.1 µM]	0%	nt

High-throughput results deposited in PubChem by National Center for Advancing Translational Sciences (NCATS).
